# gsp agonist = gsp mutant agonism | Potency, µM (top dose mostly 76.9 µM), inactives show top-dose activation (cAMP increase), actives largely listed as activators | AID 624287 | gsp mutant cells, cAMP HTRF, 30 min; control for the full effect not named in the record | 0.13% of 340,000 active; active = well fitted activation curve with a large enough effect; inconclusive = small, poorly fitted or top-dose-only effect, or another doubt; inactive = no such curve, though single readings can be large or run the other way; cell line not stated here;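 note: phosphodiesterase inhibitor Ro 20-1724 added with compounds to block cAMP breakdown; potency is the fitted concentration of half-maximal effect; nearly all actives have a fitted effect of over 60% in size; about a fifth of the inactives were tested at one dose only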
#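 Cells stably selected in G418 were plated at 2000/well, grown 16-24 hr, then given compounds in DMSO with the PDE inhibitor […] (300 uM solution added) for 30 min at 37C; cAMP was read by HTRF.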
# CtBP-E1A blk = CtBP/E1A binding inhibition; AlphaScreen GST-E1A/His-CtBP binding, 1536-well; active compounds read low; control for the full effect not named in the record; activity change, % (concentration not given with the values); 0.49% of 340,000 active; AID 651724; in the data active means activity change below about -65%; inconclusive means about -30% to -65%; inactive means above about -30%; note: % is set by controls: 0 for no effect and ±100 for the full control effect
#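 Homogeneous bead-based format: GST-tagged E1A captured on glutathione donor beads, His-tagged CtBP on nickel acceptor beads; compounds precede bead addition by 2 h at 37 °C.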
# Menin MLL FP FL = menin-MLL binding inhibition, fluorescein peptide; Fluorescence polarization, fluorescein-MLL peptide displacement from menin; FP activity change, % at 61.4 µM; 290,000 tested, under 10 active; AID 1766; inconclusive = falling polarisation curve, or a change in total fluorescence; inactive = total fluorescence flat and polarisation flat or rising; no compound was filed as active; the % refers to the polarisation; negative = inhibition;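 note: % of control where 0% means no effect; inhibitors lower the polarisation; unlabelled MLL peptide was the positive control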
# ClpP mod = qHTS Assay for Activators of ClpP | ATP-dependent Clp protease proteolytic subunit (Bacillus subtilis (strain 168)), P80244 | purified B. subtilis ClpP, FRET peptide cleavage, 20 min | Potency, µM (doses to about 57.5 µM), for the others: top-dose activity change, negative = active | 1.9% of 340,000 active; active = well fitted falling curve with a large enough effect; inconclusive = small, poorly fitted or top-dose-only effect; inactive = no such curve, though single readings can be large or run the other way; note: potency is the fitted concentration of half-maximal effect; the source files actives as falling curves though it sought activators and does not explain the sign; nearly all actives have a fitted effect of over 65% in size; many hits overshoot -100%
# Target sequence (P80244 whole entry, looked up): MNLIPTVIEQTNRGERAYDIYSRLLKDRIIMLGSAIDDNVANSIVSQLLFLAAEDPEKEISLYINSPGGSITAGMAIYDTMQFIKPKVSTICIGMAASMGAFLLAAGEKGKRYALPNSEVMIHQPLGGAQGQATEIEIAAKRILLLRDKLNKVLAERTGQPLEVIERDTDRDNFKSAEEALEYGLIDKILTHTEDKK
#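 FRET quenching reversal measured ClpP activation: 10 microg/mL B. subtilis ClpP at pH 8 with the FRET-FV decapeptide, read at 430 nm after 320 nm excitation. The 20-min minus 0-min signal was scaled between DMSO/no-enzyme wells and ADEP (5.8 microM final).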
# gsp antagonist = gsp mutant antagonism | gsp-mutant cells, cAMP HTRF, 30 min; control for the full effect not named in the record | Potency, µM (doses to about 76.9 µM), inactives show at the highest dose activity change, negative = inhibition, most hits filed as inhibitors | 0.4% of 340,000 active; active = falling curve of any shape with a large fitted effect; inconclusive = falling curve, mostly with a smaller effect; inactive = flat or rising curve; cell line not stated here;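 note: intracellular cAMP measured with PDE inhibitor Ro 20-1724 present during compound exposure; potency is the fitted concentration of half-maximal effect; % is set by controls: 0 for no effect and ±100 for the full control effect; nearly all actives have a fitted effect of over 65% in size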
#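 Cells, 2000/well, grown 16–24 h in DMEM 10% FBS with 0.5 mg/ml G418, then compounds plus […] (300 uM addition stock), 30 min at 37C. cAMP read by HTRF (cAMP-d2 and anti-cAMP antibody-K in lysis buffer) after 30 min RT.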
# Sfp PPTase inh = blocks B. subtilis Sfp PPTase activity; Q9F4F7; Biochemical Sfp PPTase activity, qHTS; Potency, µM, inactives show max response, negative = inhibition, most hits filed as inhibitors; 3.5% of 310,000 active; active = well fitted inhibition curve with a large enough effect; inconclusive = small, poorly fitted or top-dose-only effect, or another doubt; inactive = no such curve, though single readings can be large or run the other way;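 note: the enzyme is Sfp with the accession as filed and its product quenches rhodamine fluorescence; potency is the fitted concentration of half-maximal effect; 0% = enzyme reaction without inhibitor and -100% = no enzyme wells; top concentration of the series not given in the record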
#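 Reaction rates are the 30-min fluorescence difference (ex 525, em 598 nm) in wells containing 15 nM Sfp, 5 uM rhodamine-CoA and 12.5 uM BHQ-2-YbbR at pH 7.6 with 10 mM MgCl2.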
# TRPV1 potentiator = potentiators of human vanilloid receptor 1 (TRPV1); potentiation, % at 8.33 µM; 0.02% of 320,000 active; TRPV1-expressing cells, Fluo-8 calcium influx, capsaicin EC20 potentiation; host cell line not named in the record; control for the full effect not named in the record; active means potentiation above 80%; inconclusive means 30% to 80%; inactive means below 30%; note: 0% is about no effect
# Target sequence (Q8NER1 whole entry, looked up): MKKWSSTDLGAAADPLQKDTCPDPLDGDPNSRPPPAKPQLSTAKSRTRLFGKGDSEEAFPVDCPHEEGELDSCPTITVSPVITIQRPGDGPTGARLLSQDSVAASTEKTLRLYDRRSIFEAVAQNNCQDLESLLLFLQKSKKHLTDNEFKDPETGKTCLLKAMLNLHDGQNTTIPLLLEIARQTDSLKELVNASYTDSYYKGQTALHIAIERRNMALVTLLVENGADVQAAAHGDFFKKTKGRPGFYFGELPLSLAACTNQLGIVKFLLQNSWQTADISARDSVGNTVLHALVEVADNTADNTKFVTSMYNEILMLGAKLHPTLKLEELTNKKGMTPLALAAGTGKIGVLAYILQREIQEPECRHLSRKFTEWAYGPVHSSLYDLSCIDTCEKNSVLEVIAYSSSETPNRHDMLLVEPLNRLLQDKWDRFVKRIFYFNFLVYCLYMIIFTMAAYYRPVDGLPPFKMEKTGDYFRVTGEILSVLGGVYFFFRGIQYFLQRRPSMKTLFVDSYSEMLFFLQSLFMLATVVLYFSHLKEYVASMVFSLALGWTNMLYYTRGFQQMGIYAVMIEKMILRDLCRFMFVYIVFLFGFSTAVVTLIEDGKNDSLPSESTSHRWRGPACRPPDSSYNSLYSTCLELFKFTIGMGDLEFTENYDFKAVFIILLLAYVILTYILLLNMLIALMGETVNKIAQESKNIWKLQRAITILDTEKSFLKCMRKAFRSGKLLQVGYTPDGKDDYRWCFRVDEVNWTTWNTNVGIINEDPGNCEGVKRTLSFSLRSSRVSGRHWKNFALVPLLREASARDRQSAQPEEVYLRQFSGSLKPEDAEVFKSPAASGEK
#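 Fluo-8 calcium influx in TRPV1-expressing cells, kinetic read (ex 480/em 520 nm). Compound added and read 3 min for agonist activity, followed by capsaicin at EC20 final and 2 min further read for enhancement.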
# Starred values were filed as active, the others as inactive; u = inconclusive; x = no result given; & = joins results of further samples; [ ] = remark or other dose. Not a hit list; any-hit rate near 5.3%.
SMILES,gsp agonist,CtBP-E1A blk,Menin MLL FP FL,ClpP mod,gsp antagonist,Sfp PPTase inh,TRPV1 potentiator
COc1ccc(NC(C#N)c2ccccc2OCc2ccccc2)cc1 (stereo not drawn),10.7%,x,2.5,-12.0%,-29.1%,3.0%,-3.9
O=C(CS(=O)CC(=O)N(CC(=O)NC1CCCC1)c1ccc2c(c1)OCCO2)Nc1ccc(F)cc1 (stereo not drawn),-7.7%,-2.8,3.3,-0.3%,-4.1%,-8.9%,-15.0
C=CCc1c(N(CC)CC)nc(C)[nH]c1=O,-10.7%[15.4 µM],4.3,2.9,x,20.6%,-14.1%,-9.4
COc1ccc(Br)cc1CNCCSc1nnnn1C,18.2%,2.5,-1.6,-2.3%,2.4%,7.1%,-6.7
CCN(CC)CCCNC(=O)CC1Sc2ccccc2NC1=O (stereo not drawn),-3.6%,8.1,2.1,1.2%,10.1%,9.4%,9.4
Clc1ccc(-c2cccs2)nn1,22.5%,0.0,0.2,x,7.7%,19.6%,-4.6
CC1CC(C)CN(C(=O)c2ccc(NS(=O)(=O)c3ccc4[nH]c(=O)[nH]c4c3)cc2)C1 (stereo not drawn),15.9%,-2.8,x,-22.3%,-0.4%,x,u
Cn1c(Cc2ccccc2)nnc1SCC(=O)NCCc1ccccc1,10.1%,-0.2,-2.6,-3.1%,-13.1%,17.2%,-0.2
Cc1ccc(SCCC(=O)N2CCC(C)CC2)cc1,-8.9%,3.8,2.9,0.0%,-17.1%,-11.3%,-16.8
CN(C(=O)/C=C/c1ccc(F)cc1)C1CCCCC1,4.0%[15.4 µM],-0.9,x,x,-5.7%,x,x
c1ccc2c(c1)[nH]c1c(N3CCN(C4CCCCC4)CC3)ncnc12,3.9%,-18.4,0.4,31.6µM*,-1.6%,-0.3%,-5.2
COc1ccc(C2/C(=C(\O)c3ccc4c(c3)OCCO4)C(=O)C(=O)N2Cc2cccnc2)cc1 (stereo not drawn),u,x,x,2.4%,2.9%,9.6%,10.9
CCN(CC)CC(=O)Nc1ccc2c(c1)N(C(=O)CN(CC)CC)c1ccccc1CC2,-24.2%,8.6,0.2,0.5%,6.0%,-3.2%,2.1
Cc1nn(-c2ccccc2)c(C)c1C(=O)NCCc1ccc(Cl)cc1,u,8.8,x,-0.3%,-13.2%,15.6%,-24.1
Cc1cc(C(F)F)n2ncc(C(=O)NC3CCCCCC3)c2n1,12.2%,3.3,1.4,-1.0%,3.1%,6.9%,-26.6
COC(=O)CN1C(=O)[C@H]2[C@@H](/C=C/c3ccccc3)N3C(=O)CN(Cc4ccccc4)C(=O)[C@@]3(C)[C@H]2C1=O,x,3.6,3.4,0.2%,6.7%,20.6%,-14.5
c1ccc2cc(OCCCn3ccnc3)ccc2c1,-23.0%,-18.5,1.0,x,-3.8%,-11.6%,0.4
COc1ccccc1C(=O)Nc1ccc(S(=O)(=O)N2CCCCC2c2cccnc2)cc1 (stereo not drawn),0.8%,-15.2,1.2,-1.5%,-21.5%,17.4%,x
Cc1cc(NC(=O)CSc2cn(CCNC(=O)c3ccc(Cl)cc3)c3ccccc23)no1,-101.1%[inhibitor],-2.9,-0.4,2.6%,-21.2%,7.7%,u
Oc1c(CN2CCCCC2)cc(Br)c2cccnc12,u,-92.3*,-13.7,0.7%,-0.4%,44.7µM*,10.3

# 9 of these compounds, reformatted.
Molecule	gsp agonist	CtBP-E1A blk	Menin MLL FP FL	ClpP mod	gsp antagonist	Sfp PPTase inh	TRPV1 potentiator
Cc1ccc(SCCC(=O)N2CCC(C)CC2)cc1	-8.9%	3.8	2.9	0.0%	-17.1%	-11.3%	-16.8
CN(C(=O)/C=C/c1ccc(F)cc1)C1CCCCC1	4.0%[15.4 µM]	-0.9	x	x	-5.7%	x	x
c1ccc2c(c1)[nH]c1c(N3CCN(C4CCCCC4)CC3)ncnc12	3.9%	-18.4	0.4	31.6µM*	-1.6%	-0.3%	-5.2
COc1ccc(C2/C(=C(\O)c3ccc4c(c3)OCCO4)C(=O)C(=O)N2Cc2cccnc2)cc1 (stereo not drawn)	u	x	x	2.4%	2.9%	9.6%	10.9
CCN(CC)CC(=O)Nc1ccc2c(c1)N(C(=O)CN(CC)CC)c1ccccc1CC2	-24.2%	8.6	0.2	0.5%	6.0%	-3.2%	2.1
Cc1nn(-c2ccccc2)c(C)c1C(=O)NCCc1ccc(Cl)cc1	u	8.8	x	-0.3%	-13.2%	15.6%	-24.1
Cc1cc(C(F)F)n2ncc(C(=O)NC3CCCCCC3)c2n1	12.2%	3.3	1.4	-1.0%	3.1%	6.9%	-26.6
COC(=O)CN1C(=O)[C@H]2[C@@H](/C=C/c3ccccc3)N3C(=O)CN(Cc4ccccc4)C(=O)[C@@]3(C)[C@H]2C1=O	x	3.6	3.4	0.2%	6.7%	20.6%	-14.5
c1ccc2cc(OCCCn3ccnc3)ccc2c1	-23.0%	-18.5	1.0	x	-3.8%	-11.6%	0.4

# (list continues)
SMILES,gsp agonist,CtBP-E1A blk,Menin MLL FP FL,ClpP mod,gsp antagonist,Sfp PPTase inh,TRPV1 potentiator
Cc1cc(SCC(=O)NC(=O)NCc2ccco2)nc2ccccc12,-1.2%,3.4,2.5,-0.8%,0.8%,25.1µM*,1.7
O=c1oc2c(-c3ccc([N+](=O)[O-])cc3)cc(O)cc2s1,-0.2%[15.4 µM],-22.0,3.6,x,0.2%,39.8µM*,3.1
CCOc1ccc(C2CC(=O)c3c([nH]c(C(=O)OC)c3C)C2)cc1OC (stereo not drawn),0.2%,7.8,1.5,-9.3%,-10.9%,-10.4%,-0.7
Nc1nc(NCCO)nc(NCc2ccccc2)c1[N+](=O)[O-],-1.9%[15.4 µM],1.5,1.0,x,11.9%,12.0%,-8.8
O=c1c(-c2ccc(O)cc2)coc2cc(O)cc(O)c12,x,-24.7,u,-2.6%,-18.3%,15.8%&4.2%&21.6%&-7.5%&-11.2%,-6.3
NC(=O)CC1C(=O)N(c2ccccc2)C(=S)N1NC(=O)c1ccc(Br)cc1 (stereo not drawn),28.8%,-2.6,10.1,x,10.9%,16.8%,11.7
CCOC(=O)C1=C(C)N=C(SC)N(C)C1c1ccccc1 (stereo not drawn),-58.9%[inhibitor],-1.9,5.3,-5.4%,-28.8%,-6.1%,-20.3
COc1ccc(NC(=O)c2cccc3ccccc23)cc1,-1.8%,0.0,-1.9,x,-5.2%,19.1%,8.7
CCCC[C@@H](CNC)NC[C@H](Cc1ccc(O)cc1)NCCc1ccc(OCC)cc1,0.4%,-27.5,-3.1,-1.1%,12.3%,23.9%,9.8
CNC(=O)c1[nH]cnc1C(=O)Nc1ccc(OC)cc1,3.3%,x,3.5,-2.1%,3.7%,-9.2%,10.7
COc1cccc(C2CC(c3ccc(C(C)C)cc3)n3nc(N)nc3N2)c1 (stereo not drawn),-40.0%[inhibitor],-1.0,0.1,-1.2%,4.0%,2.0%,x
CCOC(=O)N1CCN(C(=S)NC(=O)C23CC4CC(CC(C4)C2)C3)CC1,-15.8%,0.1,-0.2,x,-5.8%,8.5%,-19.5
Cc1occc1-c1nnc(SCC(=O)N2CCOCC2)o1,3.4%,4.7,0.2,-0.9%,11.6%,7.4%,-9.1
CC1CCCN(C(=O)c2nn(C)c3c2CS(=O)(=O)c2ccccc2-3)C1 (stereo not drawn),-13.8%,-4.9,-1.2,-5.3%,15.2%,12.0%,u
CCOc1ccc(CCNC(=O)c2nn(C)c3c2CS(=O)(=O)c2ccccc2-3)cc1OCC,u,-1.6,x,-0.5%,-25.5%,2.2%,6.1
Clc1ccc(-c2cn3ccccc3n2)cc1,u,-0.5,-3.6,4.6%,-9.6%,-1.6%,-23.2
COc1ccc(NC(=O)CN(C)CC(=O)Nc2sc3c(c2C#N)CCC3)cc1,39.2%,-3.5,x,-0.6%,-19.8%,x,0.5
COc1ccc(/C=N/NC(=O)C(Cc2c[nH]c3ccccc23)NC(=O)OCC(C)C)cc1[N+](=O)[O-] (stereo not drawn),4.2%,-7.7,u,-0.4%,8.2%,-10.7%,12.0
CCOc1ccc(OCC(=O)Nc2ccccc2C(F)(F)F)cc1,-3.3%[15.4 µM],x,-0.5,x,3.7%,-4.2%,-3.1
COc1cccc(CNC(=O)c2cccc(NC(=O)C3=C(C)OCCS3)c2)c1,u,-3.1,-2.1,1.3%,-8.2%,9.7%,-14.1
O=C(CNC(=O)c1ccco1)Nc1ccc(N2CCCCCC2)cc1,0.8%,-20.7,x,-1.7%,-10.8%,x,-3.6
Cc1cccc(CCNC(=O)CNS(=O)(=O)c2ccc3nc(C)sc3c2)c1,-50.5%[inhibitor],-8.7,x,-3.2%,8.6%,14.9%,15.9
COc1ccc(N(CC(=O)NCCSCc2ccco2)S(=O)(=O)c2ccccc2)cc1Cl,-20.0%,-2.7,-5.2,0.4%,-17.1%,-16.0%,3.7
Fc1cccc(F)c1/C=N/Nc1ccccn1,0.5%,-13.1,-5.6,1.3%,10.3%,11.1%,u
CC(NC(=O)CCc1nnc(C2(c3ccc(Cl)cc3)CCC2)o1)C1CC1 (stereo not drawn),-7.8%,-1.8,1.9,x,-0.1%,17.5%,-9.9
CC(C(=O)N1CCN(Cc2ccc3c(c2)OCO3)CC1)c1ccc([N+](=O)[O-])cc1 (stereo not drawn),-2.5%[15.4 µM],-5.1,-0.5,x,11.2µM*,-9.1%,-12.1
C#CC1CN(Cc2ccccc2)CC(C#C)N1C (stereo not drawn),6.7%,-12.7,0.4,1.0%,7.5%,0.8%,4.2
NC(=S)Nc1cccc(F)c1,19.0%[15.4 µM],4.7,3.2,-2.4%,-4.4%,8.4%,3.6
O=C(Cc1ccc(Cl)cc1)NNC(=O)c1ccco1,-59.5%[inhibitor],-5.9,x,0.2%,11.6%,1.7%,-2.4
CCOC(=O)NC(=O)/C(C#N)=N\Nc1ccc(Cl)cc1,u,2.3,0.1,-0.5%,u,-6.9%,10.2
CSc1nc2ncc(C#N)cn2n1,-1.6%,-4.4,3.4,x,4.8%,18.1%,-1.9
O=c1cc(-c2ccccc2)oc2cc(OCc3ccccc3)cc(O)c12,1.4%[15.4 µM],x,-2.9,x,-5.4%,0.9%,-2.1

# Source: PubChem BioAssay
